Source: PubChem BioAssay
GLA inh pH 4.5: qHTS Assay for Inhibitors of Human alpha-Galactosidase at pH 4.5 | Alpha-galactosidase A (Homo sapiens), P06280 | purified enzyme, 4-MU-alpha-Gal fluorescence, pH 4.5 | activity change, negative = inhibition, % at 105 µM | 230,000 tested, under 10 active | AID 1467, 2008; inconclusive = small, poorly fitted or top-dose-only inhibition, or a rising curve; inactive = flat fitted curve, though single readings scatter; no compound was filed as active;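 further: 0% = full activity with enzyme and -100% = basal without enzyme; dose as in the result columns while the protocol names 77 µM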
Target sequence (P06280 whole entry, looked up): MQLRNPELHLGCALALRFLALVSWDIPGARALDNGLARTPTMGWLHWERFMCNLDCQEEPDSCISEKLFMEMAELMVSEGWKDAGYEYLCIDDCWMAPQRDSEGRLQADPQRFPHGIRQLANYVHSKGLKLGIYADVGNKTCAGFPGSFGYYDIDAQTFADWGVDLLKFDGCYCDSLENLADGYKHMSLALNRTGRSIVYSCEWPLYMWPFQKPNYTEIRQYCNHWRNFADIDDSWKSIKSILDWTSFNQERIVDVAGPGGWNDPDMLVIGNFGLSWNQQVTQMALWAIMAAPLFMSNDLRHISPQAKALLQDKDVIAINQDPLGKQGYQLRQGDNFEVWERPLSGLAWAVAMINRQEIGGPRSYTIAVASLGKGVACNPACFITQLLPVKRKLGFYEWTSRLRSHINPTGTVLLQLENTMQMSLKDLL
miR-21 FLuc: qHTS Assay for Modulators of miRNAs and/orActivators of miR-21. 340,000 tested, under 10 active. HeLa miR-21 FLuc reporter, luciferase, 48 h. Potency, µM (series often up to 38.3 µM), for inactives: at the highest dose reporter change, positive = more light; active = well fitted rising curve with a large enough effect; inconclusive = small, poorly fitted or top-dose-only effect; inactive = no such curve, though single readings can be large or run the other way;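 further: % of control where 0% means no effect; miR-21 action dims this reporter so a rising signal means less miR-21 action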
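HeLa cells endogenously expressing miR-21, stably carrying CMV-driven firefly luciferase with a downstream miR-21 binding site, 2000 cells/well. Titrations up to approximately 40 uM, 48 hours; luciferase luminescence read.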
Rango-impB inh: qHTS Assay for Inhibitors of Rango (Ran-regulated importin-beta cargo) - Importin beta complex formation; Importin subunit beta-1 (Homo sapiens), Q14974; Rango CFP/YFP FRET sensor + importin beta, 45 min; Potency, µM (series often up to 92.2 µM), for the others: top-dose inhibition of complex formation; 340,000 tested, 0.031% active; AID 540263, 2011; active = rising FRET ratio curve, often small or poorly fitted; inconclusive = mostly compound fluorescence or quenching in the first reads; inactive = flat curves in all reads;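 further: potency means the concentration at half of the fitted maximal effect; 0% = DMSO wells and 100% = buffer wells lacking importin beta; nearly all actives have a fitted effect of over 15% in size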
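FRET biosensor (snurportin 1 IBB flanked by EYFP and cerulean), 50 nM, with compound 5 min, then 0.125 microM importin beta in PBS, 1 mM DTT, 0.02% Tween-20, 0.1% BSA. CFP/YFP ratio read after 45 min at room temperature; pre-read flags interference.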
Rango release inh: qHTS Assay for Inhibitors of RanGTP induced Rango (Ran-regulated importin-beta cargo) - Importin beta complex dissociation. Snurportin-1 (Homo sapiens) + GTP-binding nuclear protein Ran (Homo sapiens) + Importin …. Biochemical FRET Rango-importin beta, RanGTP-induced dissociation. Potency, µM (doses to about 46.1 µM), for the others: at the highest dose activity change, negative = inhibition. 340,000 tested, 0.071% active. AID 540253, 2011; active means falling FRET ratio curve, often poorly fitted, with flat reads before Ran was added; inconclusive means other falling curves, or compound fluorescence or quenching; inactive means flat or rising ratio curve;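 further: potency means the concentration at half of the fitted maximal effect; % of control where 0% means no effect; nearly all actives have a fitted effect of over 45% in size; -100% = wells without RanGTP and RCC1; the record marks most hits as doubtful in a second field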
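Quantitative HTS using a FRET biosensor: 0.1 uM Rango, 0.25 uM importin beta, 0.6 uM Ran, 2 mM GTP, 0.2 uM RCC1 final, PBS with DTT, Tween-20 and BSA. Post-read taken 45 min after Ran addition.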
Starred values were filed as active, the others as inactive; ? = inconclusive; · = no result given; & = joins results of further samples. These rows are one share of the data (hit frequency here may not be typical).

Molecule,GLA inh pH 4.5,miR-21 FLuc,Rango-impB inh,Rango release inh
CC(C)NS(=O)(=O)c1ccc(NC(=O)c2cccnc2)cc1,·,-1%,-3.2%,6%
NC(=O)C1(N2CCCCC2)CCN(C2CC(=O)N(CCc3ccccc3)C2=O)CC1 (centres undefined),-2,-2%,0.5%,8%
CN1CCN(c2oc(-c3ccc([N+](=O)[O-])cc3)nc2C#N)CC1,-5,-3%,1.2%,5%
CCN(CC)C(=O)c1[nH]cnc1C(=O)N[C@H](C)c1ccccc1,·,·,-1.8%,-6%
COc1cc2[nH]c(=O)n(CCC(=O)N3CCC(N4CCCCC4)CC3)c(=O)c2cc1OC,4,0%,2.7%,16%
CCOC(=O)CCC(NC(=O)c1cncc(O)c1)C(=O)OCC (centres undefined),-10,0%,2.1%,9%
Cc1noc(C)c1C(=O)Nc1cc(Cl)ccc1N1CCOCC1,·,·,0.3%,10%
S=C(Cc1ccccc1)NCCc1ccccc1,·,·,-2.5%,21%
COc1ccc(C(=O)OCC(=O)c2ccc(C)c(S(=O)(=O)N3CCOCC3)c2)cc1OC,1,7%,-4.6%,23%
CC1=C(C(=O)Nc2ccccc2C)C(c2ccc(C)o2)C2=C(CCCC2=O)N1 (centres undefined),-8,-4%,1.0%,-2%
CCCNC(=O)C1(CC2CC(c3ccccc3)=NO2)CCN(C(=O)C2(C)CC2)CC1 (centres undefined),·,·,-5.8%,34%
CC(=O)C12CC(C)=C(C)CC1CC1C3CCC4=CC(=O)CCC4(C)C3CCC12C (centres undefined),·,·,-4.1%,-6%
Cc1cccc(N2CCN(C(=O)c3ccc(CS(=O)Cc4ccc(Cl)cc4)o3)CC2)c1C (centres undefined),·,14%,0.4%,12%
Cc1onc(-c2ccccc2)c1C(=O)NN1CCOCC1,·,·,2.5%,9%
O=C(NCCc1ccccn1)c1c(-c2ccsc2)sc2ccccc12,·,·,0.4%,0%
CCn1cc(S(=O)(=O)NCc2ccc(OC)cc2)cn1,·,4%,-2.7%,7%
CC(OC(=O)CC1CCCC1)C(=O)Nc1ccc(S(N)(=O)=O)cc1 (centres undefined),·,·,3.4%,0%
CCCc1nnc(SCc2ccc(C(=O)OC)o2)n1N,-8,-2%,0.1%,3%
O=c1c2ccccc2sn1-c1ccc(S(=O)(=O)N2CCCC2)cc1,-4,0%,-2.5%,7%
CCc1nnc(NC(=O)NC(C)(C)C)s1,5,-28%,8.5%,-5%
CCOC(=O)N1CCN(S(=O)(=O)c2ccc(C(=O)N(CCN(CC)CC)c3nc4c(C)cccc4s3)cc2)CC1,·,-4%,-1.2%,1%
CCCCNc1c(-c2ccc(Sc3ccc(OC)cc3)cc2)nc2cc(C)ccn12,·,·,?,?
CCOc1ccc(NC(=O)Cn2nnc(C(=O)NCc3ccc(OC)cc3)c2N)cc1,·,-13%,-4.3%,-2%
Cc1ccc(C(=O)CCC(=O)N2CCN(C(=O)c3ccco3)CC2)cc1,0,-2%,1.5%,1%
Cc1sc2ncnc(N(C)CCc3ccccn3)c2c1C,7,-17%,-6.6%,4%
COc1ccc(-c2nnc3n2N=C(C)CS3)cc1OC,2,-7%,4.2%,0%
Cc1ccc(C(=O)NCC(=O)OCC(=O)N2CC(C)OC(C)C2)cc1 (centres undefined),·,·,1.5%,2%
COc1ccc2[nH]c(CN3CCC(n4nccc4NC(=O)C4CC4)CC3)c(C)c2c1,·,-1%,-1.2%,1%
N#Cc1ccc(NC(=O)c2nc(-c3ccccc3)n(-c3ccccc3)n2)cc1,-3,-3%,-0.7%,-9%
Cc1c(C(=O)Nc2cccc(S(=O)(=O)N3CCCC3)c2)oc2ccccc12,-4,-1%,-2.2%,-10%
COc1ccc(/C=C2/C(=O)N(c3ccccc3)N=C2C)c(OC)c1,·,0%,2.8%,-6%
O=C(CN1C(=O)CCSc2ccccc21)Nc1cccc(F)c1,-8,-7%,-2.5%,-5%
COc1ccc(/C=N/NC(=O)c2cccc(NC(=O)c3ccccc3Cl)c2)cc1,·,5%,4.1%,-18%
COc1ccc(CCNC(=O)CN2CCC(n3nnc4cc(F)ccc43)CC2)cc1OC,8,-13%,-1.7%,0%
CN(C)C(=O)COC(=O)c1cccc(S(=O)(=O)N2CC3(C)CC2CC(C)(C)C3)c1 (centres undefined),·,·,0.4%,-1%
Fc1ccccc1CSc1nnc(Cn2cnc3ccccc32)n1-c1ccccc1,-5,-1%,-1.0%,-13%
CCOc1ccc(OC(=O)c2cccc(S(=O)(=O)N3CCN(C)CC3)c2)cc1,·,·,4.2%,15%
CC(=O)OCC(=O)C1CCC2C3CC=C4CC(O)CCC4(C)C3CCC12C (centres undefined),·,·,4.6%,12%
CCOCCCN(C(=O)c1snc(C(N)=O)c1N)C(C(=O)NC(C)(C)C)c1ccc(Cl)cc1 (centres undefined),·,3%,0.9%,0%
COc1ccc2[nH]c(C(=O)Nc3ccc(C)c(F)c3)cc2c1,-19,-36%,-1.3%,-7%

Only Rango release inh, Rango-impB inh and miR-21 FLuc, for some of the entries so far:
| SMILES | Rango release inh | Rango-impB inh | miR-21 FLuc |
| --- | --- | --- | --- |
| Cc1c(C(=O)Nc2cccc(S(=O)(=O)N3CCCC3)c2)oc2ccccc12 | -10% | -2.2% | -1% |
| COc1ccc(/C=C2/C(=O)N(c3ccccc3)N=C2C)c(OC)c1 | -6% | 2.8% | 0% |

Carrying on.
Molecule,GLA inh pH 4.5,miR-21 FLuc,Rango-impB inh,Rango release inh
CCCCCCCCCCCCC/C=C/[C@@H](O)[C@@H](N)CO,-3&-2,·,4.7%,1%
CCN(CC)S(=O)(=O)c1ccc2oc(Nc3ccc4c(c3)OCCO4)nc2c1,-4,-28%,-1.2%,24%
CCN(C(=O)c1ccc(NC(C)=O)cc1)c1ccccc1C,5,1%,-0.1%,12%
CN(CC(=O)Nc1cccc(Cl)c1)S(=O)(=O)c1ccc2c(c1)n(C)c(=O)c(=O)n2C,·,6%,-4.0%,-7%
CCOc1ccc(N(CC(=O)NCc2ccc(OC)cc2)S(=O)(=O)c2c(C)noc2C)cc1,-4,-3%,2.4%,5%
Cc1ccc(OCCNC(=O)CNC(=O)c2ccc(C)cc2)cc1,·,0%,-1.1%,3%
CCn1ccnc1CN(C)C(=O)CCc1nnc(CCC2CCCCC2)o1,-8,-13%,2.4%,1%
CN(C)S(=O)(=O)c1cccc(NC(=O)c2ccccc2OCc2ccc(F)cc2)c1,·,1%,?,21%
C=CCN(C(=O)COC(=O)c1cc[n+]([O-])cc1)c1nc(-c2ccccc2)cs1,·,·,-2.1%,0%
Cc1cc2ncn(CCCCOc3ccccc3)c2cc1C,1,9%&-3%,3.9%,33%
COc1cc(C2C(C#N)=C(N)Oc3n[nH]c(-c4cccnc4)c32)ccc1OCC(N)=O (centres undefined),-1,-2%,6.5%,17%
COc1cccc(C(=O)Nc2c3c(nn2-c2cccc(C)c2C)CS(=O)C3)c1OC (centres undefined),-2,-9%,-1.8%,-9%
COc1ccc(OCCOc2ccc(S(=O)(=O)N3CCCC3)cc2[N+](=O)[O-])cc1,·,·,-7.1%,2%
Nc1nn(-c2ccccc2)c2ccc([N+](=O)[O-])cc12,·,-37%,0.9%,2%
CCn1c(C)nc2cc(C(=O)NNC(=S)NC(=O)c3ccccc3)ccc21,-13,-11%,-3.4%,-5%
CSc1nc2nccc(-c3ccc(-c4ccccc4)cc3)n2n1,1,-15%,0.6%,15%
CCS(=O)(=O)C1=NSC2=NC(=O)/C(=C\c3ccc(OS(=O)(=O)c4ccccc4)c(OC)c3)C(=N)N21,·,-13%,?,?
COc1ccc(-c2nnc3n2-c2ccccc2SC3)cc1OC,3,-22%,-1.6%,0%
O=C(CCC(=O)c1cccs1)NNC(=O)c1ccccc1Cl,·,·,-1.2%,-12%
COc1ccc(/C=C2\SC(=S)N(CCC(=O)NCCCN3CCOCC3)C2=O)cc1,·,1%,?,-2%
CC1=C(C(=O)Nc2ccccc2C(=O)NCCCN2CCN(C)CC2)SCCO1,·,0%,1.2%,-2%
O=C(CCc1n[nH]c(=O)[nH]c1=O)N1CCOCC1,9,1%,0.8%,21%
CCOc1ccc2c(c1)C(=NNC(=O)c1ccncc1)c1cc(OCC)ccc1-2,-5,-19%,-4.2%,-6%
COc1ccc(C(=O)N2CC3(CC(c4ccc(Cl)cc4)=NO3)C[C@H]2C(=O)NCC(N)=O)cc1 (some centres undefined),1,-3%,-1.4%,-5%
Cn1c(CCn2ccccc2=O)nc2cc(NC(=O)COc3ccccc3)ccc21,·,-9%,-2.9%,-11%
CC1CCC(NC(=O)CSc2ccc(S(=O)(=O)N(C)C)cn2)CC1 (centres undefined),·,·,-2.0%,1%
COc1ccc(C(=O)CC(=O)Nc2ccc([N+](=O)[O-])cc2)cc1,·,12%,3.0%,-11%
CC(Oc1ccc(F)cc1)C(=O)Nc1cc(C(F)(F)F)ccc1-n1cncn1 (centres undefined),·,·,1.4%,-2%
O=c1c2ccccc2nc(COc2ccccc2)n1/N=C/c1cn[nH]c1-c1ccccc1,0,-5%,-2.6%,15%
COc1cccc(C2(C)NC(=O)N(CC(=O)Nc3ccc(N4CCOCC4)cc3)C2=O)c1 (centres undefined),·,·,-4.0%,5%
C=CCN1C(=O)C(Cc2cccc(C)c2)SC1=Nc1ccc(C(=O)O)cc1 (centres undefined),-2,-12%,-0.9%,-14%
COc1ccc(NC(=O)c2ccccc2-c2ccccc2)cc1,-3,1%,-0.3%,6%
CC(C)c1ccc(NC(=S)N2CCCC(c3ccc(F)cc3)=N2)cc1,-6,-1%,-2.5%,7%
O=C(CSCC(=O)N1CCCCC1)Nc1nc(-c2cccs2)cs1,3,-41%,4.9%,6%
COc1ccc(S(=O)(=O)N(C)C)cc1NC(=O)COC(=O)Cn1cnc2ccccc2c1=O,·,·,3.9%,0%
COc1ccc(Cl)cc1N(CC(=O)Nc1ccccc1SC)S(C)(=O)=O,0,-7%,-1.6%,2%
CC(C)c1ccc(-c2nc(N3CCCC3)nc3n[nH]c(N)c23)cc1,6,-18%,2.1%,15%
Cc1cccc(NC(=O)c2ccc(C(=O)c3ccccc3)cc2)n1,·,·,-1.9%,9%
CC(C)N1C(=O)C(=O)N(CC(=O)N(C)c2ccccc2)C1=O,·,·,1.6%,-14%
Cc1cc(Cl)ccc1OCC(=O)OCC(=O)c1c(N)n(C)c(=O)n(C)c1=O,·,·,6.9%,-3%
CCN(c1ccccc1)S(=O)(=O)c1ccc(C(=O)NCCc2ccc(S(N)(=O)=O)cc2)cc1,·,9%,-0.1%,-7%
CN=C(Nc1cccnc1)c1ccccc1,·,1%,?,?
CC(=O)Nc1ccc(CN2CCCN(C)CC2)cc1,·,-1%,0.0%,0%
CCCC(=O)Nc1nnc(SCC(=O)NC2CC2)s1,·,11%,-0.7%,1%
CSc1nc(C)cc(OCC(=O)N/N=C/c2ccccc2O)n1,10,29%,0.1%,-24%
CCC(C)c1ccc(NC(=S)NN2CCOCC2)cc1 (centres undefined),5,-50%,-0.8%,-4%
CCCN(CCC)c1nc(C#N)nc(N(CCC)CCC)n1,5,0%,3.2%,1%
CCC(=O)c1ccc(OCC(=O)OCC(=O)Nc2cccc(S(=O)(=O)N3CCCC3)c2)cc1,·,·,-2.4%,-3%
CN(CC(=O)Nc1cccc(F)c1)CC(=O)N1CCCCC1,·,·,4.0%,24%
COc1ccccc1NC(=O)c1cc([N+](=O)[O-])ccc1NCCN1C(=O)CCC1=O,-8,-4%,-0.7%,20%
